Screening data: PubChem BioAssay, National Center for Advancing Translational Sciences (NCATS)
A647 fluor: compound fluoresces in the A647 spectral region | max dye-equivalent concentration, M | Compound fluorescence, A647 channel (570/671 nm), Tris buffer | 59,000 tested, under 10 active; active means above 1 µM dye equivalent; inconclusive means 0.1 to 1 µM; inactive means 0.1 µM or less;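 also: values scaled relative to a standard on each plate; highest value over a series up to 38 µM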
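Fluorescence read (570 nm ex, 671 nm em) after 15 min RT incubation of compounds in 100 mM Tris buffer, pH 8.0; values expressed as dye-equivalent concentration against a six-point A647 standard series on each plate.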
A488 autofl: A488 region autofluorescence | compound autofluorescence, A488 spectral region, dye equivalency; active compounds read high | max dye equivalency, M | 0.1% of 59,000 active | AID 591; active = above 10 nM dye equivalent; inconclusive = 1 to 10 nM; inactive = 1 nM or less; about half of its hits are not listed in these tables;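 also: highest value over a series up to 38 µM; compound alone in buffer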
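Spectroscopic profiling in the A488 region: compounds in pH 8.0 Tris (100 mM), 15 min RT, CCD imaging with 480 nm excitation and 540 nm emission; responses normalized against A488 dye standards.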
AID923: qHTS Assay for Allosteric/Competitive Inhibitors of Caspase-1: Spectroscopic Profiling in AFC Spectral Region | compound fluorescence, AFC spectral region (405/520 nm); almost no hit is shown here | 1.1% of 75,000 active | AID 923, 2007 | Potency, µM (top dose mostly 57.5 µM), without a hit: at the highest dose fluorescence increase, most hits filed as activators; active = well fitted activation curve with a large enough effect; inconclusive = small, poorly fitted or top-dose-only effect;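 also: potency is read from the fitted curve at half-maximal effect; 0% is about no effect; scaled to a free AFC standard on each plate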
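Baseline compound fluorescence (AFC region, 405 nm ex/520 nm em) taken from the intercept of kinetic reads with 50 nM caspase-1 and 5 uM Ac-WEHD-AFC; normalized to an on-plate AFC standard curve; compounds titrated up to 57 uM.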
TSHR ag: TSH receptor (human) agonism. 0.48% of 73,000 active. AID 926. Potency, µM (series often up to 57.1 µM), for inactives: at the top dose activation, actives largely listed as activators. HEK293-CNG-TSHR cells (CNG channel as cAMP sensor), membrane potential dye, cAMP. P16473; active = well fitted activation curve of enough size with the parental cells flat; inconclusive = any curve in the parental cells; inactive = parental cells flat and receptor cells flat or falling; also: potency is read from the fitted curve at half-maximal effect; % of control where 0% means no effect; weak receptor curves with flat parental cells got no call and are not listed
Target sequence (P16473 whole entry, looked up): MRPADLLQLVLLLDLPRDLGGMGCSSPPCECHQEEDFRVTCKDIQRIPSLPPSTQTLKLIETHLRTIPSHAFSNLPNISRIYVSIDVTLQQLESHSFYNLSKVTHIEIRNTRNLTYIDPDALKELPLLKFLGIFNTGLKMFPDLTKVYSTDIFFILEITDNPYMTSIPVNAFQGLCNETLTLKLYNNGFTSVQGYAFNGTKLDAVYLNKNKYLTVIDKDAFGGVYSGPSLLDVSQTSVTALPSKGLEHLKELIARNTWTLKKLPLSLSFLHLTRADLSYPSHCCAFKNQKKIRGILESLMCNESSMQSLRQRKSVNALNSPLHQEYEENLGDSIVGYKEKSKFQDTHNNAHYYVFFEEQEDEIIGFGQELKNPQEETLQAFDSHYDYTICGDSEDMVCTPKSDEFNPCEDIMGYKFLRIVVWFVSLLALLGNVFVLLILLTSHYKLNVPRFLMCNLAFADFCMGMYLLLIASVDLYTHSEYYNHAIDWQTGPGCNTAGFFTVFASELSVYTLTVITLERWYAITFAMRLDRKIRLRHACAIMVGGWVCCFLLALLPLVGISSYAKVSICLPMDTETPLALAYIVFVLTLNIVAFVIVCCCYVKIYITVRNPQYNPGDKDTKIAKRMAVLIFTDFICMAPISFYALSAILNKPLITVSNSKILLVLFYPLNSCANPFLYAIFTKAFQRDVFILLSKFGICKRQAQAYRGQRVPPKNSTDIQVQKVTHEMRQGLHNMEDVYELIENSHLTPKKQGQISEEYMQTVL
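HEK 293 cells stably expressing TSHR and a modified CNG channel, with CNG-only parental cells as counterscreen, were preloaded 60 min at room temperature with membrane potential dye containing 100 uM RO 20-1724. Compound exposure was 30 min, and depolarization was read as fluorescence at 590 nm.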
Resorufin fluor: compounds fluorescent in resorufin spectral region. max dye-equivalent concentration, M. Compound fluorescence, resorufin region 547/598 nm, buffer; active compounds read high. 0.04% of 59,000 active. AID 588; active = above 10 nM dye equivalent; inconclusive = 1 to 10 nM; inactive = 1 nM or less; a few of its hits are not listed in these tables; also: highest value over a series up to 38 µM
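Tris 100 mM pH 8.0; compound added, 15 min RT; CCD imager read, ex 547 nm/em 598 nm; signal normalized to resorufin standard curve (six concentrations per plate) as dye-equivalent concentration.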
Active calls of the source: *; i = inactive; ? = inconclusive; / = not tested or not shown; [ ] = dose if it differs, or a comment.

Sequence of screens – A647 fluor	A488 autofl	AID923	TSHR ag	Resorufin fluor
> CN(C)C(=O)c1ccc(NC(=O)c2cncc(Br)c2)cc1
 : 1e-09	i	1.6%	-2%	i
> CNc1cc(-c2ccccc2CN(C)C)ncn1
 : 9.9e-09	i	-1.6%	0%	i
> N#CCSc1nc2ccc(N3CCCCC3)cc2c(=O)n1Cc1ccccc1
 : 9.4e-09	i	9.9%	-6%	i
> COc1ccc(-n2ncc3c(NCc4ccco4)ncnc32)cc1
 : /	/	0.5%	3%	/
> O=C(Nc1cccc(C(F)(F)F)c1)c1cccnc1N1CCN(CCO)CC1
 : 1.6e-09	i	1.3%	3%	i
> COc1ccc(-n2nnc3c(=O)n(CC(=O)N4CCCC4)cnc32)cc1
 : 6.2e-09	i	1.5%	1%	i
> COc1ccc(CNC(=O)C2CSC(=O)C2)cc1 (stereo not drawn)
 : /	/	-0.1%	-4%	/
> CCc1ccc(C(=O)COC(=O)CNC(=O)c2ccco2)cc1
 : /	/	-2.8%	5%[11.4 µM]	/
> O=C(O)c1cc(NCc2ccccc2C(F)(F)F)ccc1N1CCOCC1
 : 1e-09	i	0.0%	12%	i
> C/C=C/COC(=O)c1[nH]c2c(c1C)C(=O)CC(c1ccco1)C2 (stereo not drawn)
 : /	/	5.7%	?	/
> COC(=O)c1cnn2c(C(F)(F)F)cc(-c3ccc(F)cc3)nc12
 : 1.5e-09	i	15%	?	i
> Cn1c(=O)[nH]c(=O)c2c1nc1n2CCCN1CCc1ccccc1
 : 1e-09	i	-0.3%	-8%	i
> CCOC(=O)c1c(O)c2c(n(Cc3ccco3)c1=O)CCCC2
 : 8.7e-09	i	0.9%	19%	i
> O=C(CSc1nnc(SCC(=O)c2ccco2)s1)c1ccco1
 : 1.5e-09	i	1.0%	/	i
> O=C(c1cccc2ccccc12)N1CCN(c2ccccc2F)CC1
 : 5.3e-08	i	0.4%	10%	i
> Fc1ccc(-n2cnnn2)c(F)c1
 : 1e-09	i	-2.9%	-3%	i
> CS(=O)(=O)N(Cc1ccc(C(=O)NC2CCCCC2O)cc1)c1ccccc1 (stereo not drawn)
 : /	/	0.3%	1%	/
> Cc1ccc(CCNC(=O)CCNS(=O)(=O)c2ccc3c(c2)oc(=O)n3C)cc1
 : 3.8e-08	i	-1.1%	3%	i
> CCN(CC)C(=O)N1CCC(NC(=O)Cc2ccccc2)CC1
 : 1.1e-08	i	-1.0%	0%	i
> CCN(CC)CCN1C(=O)C(=O)/C(=C(/O)c2ccc(F)cc2)C1c1cccnc1 (stereo not drawn)
 : 1.3e-08	i	/	/	i
> CCOC(=O)COc1ccc(CCNC(C)=O)cc1
 : 1.4e-09	i	0.9%	3%	i
> CC(NC(=O)c1cccnc1)C(=O)N1CCCCC1 (stereo not drawn)
 : 1.8e-08	i	0.3%	3%	i
> O=C(Cc1c(F)cccc1Cl)N1CCCC1
 : 7.1e-09	i	0.9%	2%	i
> CC1CCCCN1C(=O)C12CCC(C)(/C(=N/O)C1)C2(C)C (stereo not drawn)
 : 1.1e-08	i	/	/	i
> CN1C[N+]([O-])=C(c2ccccc2)C1(C)C
 : /	/	2.0%	0%	/
> CC=C(Cl)Cl
 : /	/	2.6%	?	/
> c1ccc2c(c1)C(=Nc1ccc(N=C3c4ccccc4-c4ccccc43)cc1)c1ccccc1-2
 : 1e-09	i	-0.5%[11.5 µM]	6%[11.4 µM]	i
> CCOC(=O)c1cnn(-c2nc(-c3ccccc3)nc3c2COC(C)(C)C3)c1N
 : 3.3e-09	i	-0.9%	25µM*	i
> CCOC(=O)N1CCC(NC(=O)c2cc(C(=O)Nc3ccc(OCC)cc3)ccc2CO)CC1
 : 1e-09	i	0.8%	26%	i
> CC(=O)OCCN(CCOC(C)=O)c1c(C)[nH]c(=O)[nH]c1=O
 : /	/	0.4%	0%	/
> COCC(=O)NCc1nc2ccccc2[nH]1
 : 3.5e-09	i	1.6%	-3%[11.4 µM]	i
> O=S1(=O)N[C@H]2CC[C@@H]3NS(=O)(=O)N[C@H]4CC[C@H](N1)N4S(=O)(=O)N23
 : 1.1e-09	i	-1.3%[11.5 µM]	7%[11.4 µM]	i
> O=C(Cc1c(O)c2ccccc2[nH]c1=O)NCc1cccc(F)c1
 : 2.9e-08	i	2.9%	-8%	i
> CCOc1ccccc1OCC(=O)OCC(=O)Nc1ncc(Cl)cc1Cl
 : 4.8e-09	i	1.6%	?	i
> c1ccc(Cn2nnc3c(N4CCC5(CC4)OCCO5)ncnc32)cc1
 : 2.9e-08	i	0.0%	?	i
> Cc1nn(CC(=O)Nc2cccnc2N2CCOCC2)c(=O)c2ccccc12
 : 2.9e-08	i	-0.8%	?	i
> C=CC(=O)NC(C)C
 : /	/	0.0%	?	/
> O=C(NC1CCCCC1)C1CCN(C(=O)NCc2ccccc2)CC1
 : 2.6e-08	i	1.8%	-4%	i
> CC(C)(C)C(=O)COC(=O)c1ccc(O)cc1
 : 1.8e-08	i	0.0%	2%	i
> O=C(CSc1nc(-c2ccc(F)cc2)cc(C(F)(F)F)n1)NCCN1CCOCC1
 : 2e-08	i	-3.4%	13%	i
> O=C(Nc1ccc(Cl)cn1)Nc1cccs1
 : 3.1e-08	i	2.1%	6%	i
> CCCOc1ccc2c(C)c(CC(=O)OC)c(=O)oc2c1
 : 3.3e-09	i	-2.1%	32%	i
> O=C(CCCc1nc(-c2ccccc2)no1)N1CCOCC1
 : 1e-09	i	-0.7%	6%	i
> CN1c2ccccc2C(C)(C)C12CCCC(=O)N2 (stereo not drawn)
 : 1e-09	i	4.9%	-3%	i
> CC[C@@H]1CC(=O)N(SC[C@H](N)C(=O)O)C1=O
 : 1e-09	i	3.5%[11.5 µM]	-3%[11.4 µM]	i

Limited to A647 fluor and AID923, for some of the entries so far:
Molecule	A647 fluor	AID923
C=CC(=O)NC(C)C	/	0.0%
O=C(NC1CCCCC1)C1CCN(C(=O)NCc2ccccc2)CC1	2.6e-08	1.8%
CC(C)(C)C(=O)COC(=O)c1ccc(O)cc1	1.8e-08	0.0%
O=C(CSc1nc(-c2ccc(F)cc2)cc(C(F)(F)F)n1)NCCN1CCOCC1	2e-08	-3.4%

Continuation:
Sequence of screens – A647 fluor	A488 autofl	AID923	TSHR ag	Resorufin fluor
> c1ccc(CSc2nnnn2-c2cccc3ccccc23)nc1
 : 1.3e-08	i	-2.1%	4%	i
> C=CCN(CC=C)C(=O)CN1C(=O)c2ccccc2C1=O
 : 2.3e-08	i	-1.1%	5%	i
> CCCCn1nnnc1NCc1ccc(OC)c(OC)c1
 : 1e-09	i	-1.3%	1%	i
> O=C(O)CCc1ccc(-c2cccs2)o1
 : /	/	0.6%	17%[11.4 µM]	/
> O=C(CN1CCC(C(=O)c2ccc3c(c2)OCCO3)CC1)NC1CCCC1
 : 1.7e-08	i	-2.2%	2%	i
> CC1CCN(CCNC(=O)c2ccc(NC(=O)C3CCCO3)cc2)CC1 (stereo not drawn)
 : 1.1e-09	i	0.7%	-2%[11.4 µM]	i
> O=C(CSc1nc2ccccc2o1)NC(=O)NCc1ccco1
 : 4.3e-08	i	-2.3%	7%	i
> COc1ccc(OC)c(C(=O)COC(=O)c2ccccc2O)c1
 : 1e-09	i	1.2%	?	i
> CNC(=O)OC(C)CNS(=O)(=O)c1ccc(C)cc1 (stereo not drawn)
 : 1.1e-09	i	-0.8%	3%	i
> COCCN1C(=O)C(O)=C(C(=O)c2ccco2)C1c1cccc(Oc2ccccc2)c1 (stereo not drawn)
 : /	/	-1.8%	?	/
> CN(Cc1ccco1)c1nc(-c2ccc3c(c2)OCO3)nc2ccccc12
 : 1.1e-08	i	0.4%	?	i
> CCCc1cc2c(=O)c(-c3ccccn3)coc2cc1OC
 : 5.1e-09	i	-1.2%	10%	i
> O=C(NCc1ccc2c(c1)OCO2)C1CCC(CNS(=O)(=O)c2ccccc2)CC1 (stereo not drawn)
 : 1.6e-08	i	0.2%	?	i
> CC(NC(=O)c1ccc(F)cc1)C(c1cccs1)N1CCN(C)CC1 (stereo not drawn)
 : 2.3e-08	i	-0.9%	-4%	i
> Cc1cc(C)n2nc(SCC3COc4ccccc4O3)nc2n1 (stereo not drawn)
 : 3.1e-08	i	-1.5%	4%	i
> CCCn1c2c(c(O)c(C(=O)Nc3ccc(C)cn3)c1=O)CCCC2
 : 1e-09	i	-1.0%	12%	i
> CCOC(=O)c1cnc(Nc2nc3ccccc3o2)nc1CSc1ncccn1
 : 4e-08	i	-2.3%	-1%	i
> O=C1CCCC/C1=C\Nc1ccc(O)cc1
 : 5.3e-08	i	-0.5%	3%	i
> CC(C)NC(=O)C1CC(=O)N(c2ccc(F)c(Cl)c2)C1 (stereo not drawn)
 : 2.4e-09	i	0.1%	-1%	i
> CC(=O)c1cccc(NC(=O)CCOc2ccccc2)c1
 : /	/	0.5%	-12%	/
> COc1ccc(N/C=C2\CCOC2=O)cc1
 : /	/	-1.4%	4%[11.4 µM]	/
> Cn1cnnc1SCC(=O)NCc1cccc(C(F)(F)F)c1
 : 1e-09	i	-2.0%	3%	i
> CSc1nc2c(c(=O)[nH]1)C(c1ccncc1)C(C(=O)OC(C)C)=C(C)N2 (stereo not drawn)
 : 1e-09	i	-0.3%	-5%	i
> O=C(Cc1c(C(=O)O)[nH]c2ccccc12)Nc1ccc2c(c1)OCO2
 : 1.1e-09	i	-0.3%	-4%	i
> COCCCNC(=O)c1ccc(N(C)S(=O)(=O)c2ccc(OC)cc2)cc1
 : 7.8e-09	i	-1.6%	1%	i
> O=C(c1ccc(NS(=O)(=O)c2ccccc2)cc1)N1CCCC1
 : 8.2e-09	i	1.2%	3%	i
> Cc1cc2c(c(N)n1)c(=O)oc1ccccc12
 : 3.3e-09	i	-1.4%	4%	i
> O=C(Nc1nc(NC(=O)c2ccco2)n(-c2ccccc2)n1)c1ccccc1
 : 4.2e-08	i	/	/	i
> O=C1C2C3C=CC(CO)(O3)C2C(=O)N1c1ccc(-c2ccccc2)cc1 (stereo not drawn)
 : /	/	0.0%	1%	/
> COC(=O)c1cc(C(=O)OC)cc(N2C(=O)CN=C2Nc2nc(C)cc(C)n2)c1
 : 5e-08	i	0.6%	34%	i

The closing 4 compounds of the part before lead into the next:
Sequence of screens – A647 fluor	A488 autofl	AID923	TSHR ag	Resorufin fluor
> Cc1cc2c(c(N)n1)c(=O)oc1ccccc12
 : 3.3e-09	i	-1.4%	4%	i
> O=C(Nc1nc(NC(=O)c2ccco2)n(-c2ccccc2)n1)c1ccccc1
 : 4.2e-08	i	/	/	i
> O=C1C2C3C=CC(CO)(O3)C2C(=O)N1c1ccc(-c2ccccc2)cc1 (stereo not drawn)
 : /	/	0.0%	1%	/
> COC(=O)c1cc(C(=O)OC)cc(N2C(=O)CN=C2Nc2nc(C)cc(C)n2)c1
 : 5e-08	i	0.6%	34%	i
> CC(C)CCNc1cc(=O)n(C)c(=O)n1C
 : /	/	-1.3%	?	/
> C=CCSc1nnc(NC(=O)c2ccc(S(=O)(=O)NCC3CCCO3)cc2)s1 (stereo not drawn)
 : 1.6e-08	i	0.3%	4%	i
> COc1ccccc1-c1nccc(NCc2cccc(C)c2)n1
 : 2.4e-08	i	-1.5%	?	i
> Cn1c(=O)c2c(nc(-n3ccnc3)n2C)n(C)c1=O
 : 1e-09	i	-1.2%	-4%	i
> Cc1ccc(-c2cc(-c3cccc(F)c3)n[nH]2)c(O)c1
 : 3.1e-09	i	9.6%	-11%	i
> CCS(=O)(=O)Nc1ccc(C(=O)OC)cc1
 : 7.4e-09	i	1.0%	12%	i
> CCOc1ccc2nc(NCCNC(=O)C3CC3)c(C)cc2c1
 : 3.3e-08	i	1.0%	?	i
> CCN(CC)C(=O)CSc1nc2ccccc2c(=O)n1CCC(=O)NCc1ccc(F)cc1
 : 1.4e-08	i	-1.4%	5%	i
> CC(=O)c1cc(C(=O)Nc2ccccc2C(=O)O)oc1C
 : 1e-09	i	1.1%	-6%	i

Not all compounds are listed (hit frequency here may not be typical).
